# VACV mCherry inh: inhibitors of vaccinia virus infection (mCherry reporter signal) | Vaccinia virus mCherry reporter infection, fluorescence; about a quarter of the inactives have no number | 0.63% of 310,000 active | Potency, µM (titrated, usually from 36.5 µM), for inactives: top-dose activity change, negative = inhibition, hits mostly inhibitors | AID 720579; active = well fitted inhibition curve with a large enough effect; inconclusive = small, poorly fitted or top-dose-only effect; inactive = no such curve, though single readings can be large or run the other way; tested in A549 cells; note: nearly all actives have a fitted effect of over 35% in size; inactives centre near -10
# VACV Venus inh: vaccinia inhibition (Venus reporter); Potency, µM (series often up to 36.5 µM), for inactives: top-dose activity change, negative = inhibition, most hits filed as inhibitors; AID 720580; 0.46% of 330,000 active; Vaccinia virus Venus reporter expression, fluorescence; active means well fitted inhibition curve with a large enough effect; inconclusive means small, poorly fitted or top-dose-only effect; inactive means no such curve, though single readings can be large or run the other way; tested in A549 cells; note: nearly all actives have a fitted effect of over 30% in size; inactives centre near -10
# The depositor's hits bear a star; i = inactive; u = inconclusive; x = no result given; & = joins results of further samples; [ ] = another dose, or the depositor's remark. % is set by controls: 0 for no effect and ±100 for the full control effect; potency is the fitted concentration of half-maximal effect. Outcome played no part in choosing rows. About 0.87% of those tested had a hit in this group.
# A first look:
SMILES,VACV mCherry inh,VACV Venus inh
CCCCOC(=O)CCc1c(C)[nH]c(=S)[nH]c1=O,x,-20.5%
CCOC(=O)c1cccc(NC(=O)Cn2c(=O)nc(-c3ccccc3)c3ccccc32)c1,-19.7%,u

# This part in full, from the start:
SMILES,VACV mCherry inh,VACV Venus inh
CCCCOC(=O)CCc1c(C)[nH]c(=S)[nH]c1=O,x,-20.5%
CCOC(=O)c1cccc(NC(=O)Cn2c(=O)nc(-c3ccccc3)c3ccccc32)c1,-19.7%,u
COCCn1cnnc1SCC(=O)Nc1ccc(N2CCCCC2)cc1,i,-7.9%
Cc1cc(=O)c(C(=O)N(C)CCc2ccccn2)c2n1-c1ccccc1SC(c1ccsc1)C2 (stereo not given),0.6%,15.9%
CCOc1ccc(C(=O)Nc2cccc(SC)c2)cc1,-20.3%,-17.5%
CCN(CC(=O)Nc1ccc(NC(C)=O)cc1)C(=O)c1ccc(=O)[nH]c1,i,-9.1%
Cc1cc(F)ccc1-c1cc(C(=O)Nc2ccccc2)[nH]n1,2.3%,1.3%
Cc1ccc(C(=O)N/C(=C\c2cn(C)c3ccccc23)C(=O)OCCN(C)C)cc1,-14.4%[7.34 µM],-1.8%[7.34 µM]
O=C(NCC(=O)N(CCN1CCOCC1)C(C(=O)NC1CCCC1)c1cccs1)c1ccco1 (stereo not given),-8.0%,-15.0%
CC(C)COC(=O)Cn1nnc2sc(-c3ccccc3)cc2c1=O,-14.3%,-10.2%
O=C(CN(c1ccc(Cl)c(C(F)(F)F)c1)S(=O)(=O)c1ccccc1)N1CCc2ccccc2C1,-16.4%,-4.6%
CCc1ccc(NC(=O)Cn2cc(S(=O)(=O)c3ccc(F)cc3)c(=O)c3cc(OC)ccc32)cc1,u,-19.6%
Cc1c(NS(=O)(=O)c2cccc(C(=O)OCC(=O)N(C)C3CCCCC3)c2)c(=O)n(-c2ccccc2)n1C,-29.0%,-16.7%
Cc1cc(C)cc(C(=O)NC(CC(N)=O)c2ccc(N3CCC(N4CCCCC4)CC3)c([N+](=O)[O-])c2)c1 (stereo not given),i,-7.4%
Cc1ccc(CNC(=O)C2CCN(S(=O)(=O)N3CCCCC3)CC2)cc1,-11.9%&-4.6%,-16.9%&-6.7%
Cn1c(SCCOc2ccccc2)nnc1-c1ccc(NC(=O)CCc2ccccc2)cc1,-9.1%,-3.5%
Cc1ccc2nc(Nc3cccc(Cl)c3C)c(-n3nc(C)cc3C)nc2c1,-4.1%,-7.3%
Cc1nn(CC(=O)N/N=C/c2ccc(F)cc2)c(C)c1[N+](=O)[O-],-5.8%[7.34 µM],-18.6%[7.34 µM]
Cn1c(CNC(=O)OC(C)(C)C)nnc1SCc1c(Cl)cccc1Cl,-24.4%,-12.7%
Cc1ccc2c(c1)cc(CN(CCc1ccccc1)C(=O)N1CCOCC1)c1nnnn12,-8.2%,0.2%
Cc1ccccc1C(=O)Nc1ccc(Br)cn1,u,-30.0%
Cc1cc(C)c(S(=O)(=O)Nc2ccc(-c3ccc(N4CCC(C)CC4)nn3)cc2)cc1C,-14.5%,-7.4%
COC(=O)Nc1ccc2ccc3c(NC(=O)OC)ccc4ccc1c2c43,-16.8%,-19.3%
CC(C)CC1OC(C)CC2=C1C(=O)OC(C)(C)O2 (stereo not given),20.6%,-2.9%
CC(NC(=S)Nc1ccc(OC(F)F)c(Cl)c1)C(C)(C)C (stereo not given),-23.8%,u
C/C(=N\NC(=O)c1cccc(S(=O)(=O)N2CCOCC2)c1)c1ccco1,i,-12.4%
CCCn1c(SCC(=O)c2ccc3c(c2)OCCO3)n[nH]c1=O,6.3%,7.1%
O=C(Nc1ccc(F)c(Cl)c1)c1ccccc1,-15.7%,-23.9%
Cc1ccc2nc(SCC(=O)c3c(N)n(C4CC4)c(=O)[nH]c3=O)[nH]c2c1,i,-16.5%
CC(C)(C)OC(=O)N1CCC(c2c(C(=O)N3CCN(C(=O)c4ccco4)CC3)cnn2-c2ccccc2Cl)CC1,-8.7%,-10.3%
Cc1cccc(NC(=O)c2ccc3ccccc3n2)n1,x,-8.7%
CCN(CC)S(=O)(=O)c1ccc2c(c1)N(CC(=O)N1CCN(c3cccc(Cl)c3)CC1)C(=O)CO2,-10.9%,-11.3%
COc1ccc(Nc2nc(NCc3ccco3)nc(N/N=C/c3ccccc3Cl)n2)cc1,-21.0%,-7.9%
COc1ccc(-c2c(C(F)(F)F)[nH]n3c(=O)cc(-c4ccccc4)nc23)cc1,i,-14.4%
Cc1cc(S(=O)(=O)Nc2ccc(C(=O)NC3CC3)cc2)ccc1F,i,-8.1%
CCOc1ccc(NS(=O)(=O)c2cnc(Cl)c(Cl)c2)cc1,u,12.6µM*
CC(C)Oc1ccc(C(=O)N2CCN(CCc3ccccn3)CC2)cc1,-7.0%,-1.7%
Cn1c(C(=O)NC2CCCCC2)cc2sccc21,i,-17.2%
CCCN(CCC)Cc1c(C(=O)N/N=C/c2ccoc2)nnn1-c1nonc1N,-8.6%,-7.1%
O=C(N/N=C/c1cccc([N+](=O)[O-])c1O)c1cccs1,u,u
Cc1ccc(S(=O)(=O)N2CCC(=O)N(CCOCc3ccc(Cl)cc3)CC2)cc1,u,-24.8%
Oc1cccc2ccc(/C=C/c3ccc(Br)s3)nc12,-13.4%,2.3%
Nc1cc(N)nc(SCC(=O)c2ccccc2)n1,-10.3%,-12.0%
Cc1csc(SCC(=O)c2cc(C)n(Cc3cccs3)c2C)n1,-29.6%,u
Cc1c(C(=O)N2CCC(C)CC2)c(S(=O)(=O)Nc2cccc(C(F)(F)F)c2)c(C)n1C,-22.0%,-18.5%
Cc1ccccc1NC(=O)C1C2/C=C\CCCCC21 (stereo not given),-13.4%,-11.9%
O=C(CN(C(=O)Cn1nnc(-c2cccs2)n1)c1ccc2c(c1)OCCO2)NC1CCCCC1,-25.5%,-13.0%
S=C(Nc1cccnc1)Nc1cccc2cnccc12,-6.8%,-5.1%
Cc1ccc(NC2=C(Cl)C(=O)N(C3CCCCC3)C2=O)cc1,-5.4%,-4.1%
CCN(CC(=O)Nc1c(F)cccc1F)C(=O)Cc1ccc(OC)c(S(=O)(=O)N2CCOCC2)c1,-12.3%,3.5%
# Carrying on.
SMILES,VACV mCherry inh,VACV Venus inh
CCN1CCN(C(c2cccs2)C(C)NC(=O)NC2CCCCC2)CC1 (stereo not given),-21.8%,4.6%
C=CCN=C1SC(CC)C(=O)N1S(=O)(=O)c1ccc(C)cc1 (stereo not given),x,-19.1%
COc1ccc(CNC(=O)c2ccc(CS(=O)Cc3ccc(Cl)cc3)o2)cc1 (stereo not given),18.5%[7.34 µM],2.4%[7.34 µM]
Cc1nnc(NC(=O)C2CCN(S(=O)(=O)c3ccc(F)c(Cl)c3)CC2)o1,-16.0%,-15.5%
COc1ccc(OC)c(NC(=O)CSC2=C(C#N)C(c3ccco3)C3=C(CCCC3=O)N2)c1 (stereo not given),-25.9%,-13.4%
CCCCn1nnc(NC(=O)c2ccco2)n1,x,-23.1%
CCCN1CNc2c(c(=O)[nH]c(=S)n2CCc2cc(C)ccc2C)C1,-23.7%,-21.1%
OC1(c2cccnc2)CCN(Cc2ccc3c(c2)CN(Cc2cc4ccccc4s2)CCO3)CC1,-24.2%,-21.3%
CCOC(=O)C1=C(CN2CCN(C(=O)c3ccco3)CC2)NC(=O)NC1c1ccc(Cl)cc1 (stereo not given),-11.0%,-1.8%
CCN(Cc1ccccc1)C(=O)CN1C(=O)CSc2ccc(S(=O)(=O)N(CC)CC)cc21,-6.3%,-1.4%

# Laid out differently: entries from further up.
# Sequence of screens: VACV mCherry inh | VACV Venus inh
> Cc1ccc(CNC(=O)C2CCN(S(=O)(=O)N3CCCCC3)CC2)cc1
 : -11.9%&-4.6% | -16.9%&-6.7%
> CCCN1CNc2c(c(=O)[nH]c(=S)n2CCc2cc(C)ccc2C)C1
 : -23.7% | -21.1%
> Cc1cc(C)c(S(=O)(=O)Nc2ccc(-c3ccc(N4CCC(C)CC4)nn3)cc2)cc1C
 : -14.5% | -7.4%
> CCCCOC(=O)CCc1c(C)[nH]c(=S)[nH]c1=O
 : x | -20.5%
> Cn1c(C(=O)NC2CCCCC2)cc2sccc21
 : i | -17.2%
> COCCn1cnnc1SCC(=O)Nc1ccc(N2CCCCC2)cc1
 : i | -7.9%
> COc1ccc(OC)c(NC(=O)CSC2=C(C#N)C(c3ccco3)C3=C(CCCC3=O)N2)c1 (stereo not given)
 : -25.9% | -13.4%

# Further records
SMILES,VACV mCherry inh,VACV Venus inh
CCOC(=O)CSc1nc2c(c(=O)[nH]c(=O)n2C)n1C/C=C(/C)Cl,i,-2.4%
Cc1ccc(N=C2NC(=O)C(CO)(CO)S2)cc1,-0.2%,0.4%
CCOC(=O)N1CCN(c2ncnc3scc(-c4ccccc4)c23)CC1,-13.9%,-16.6%
O=C(CN1C(=O)NC2(CCCCC2)C1=O)Nc1cc(C(F)(F)F)ccc1N1CCOCC1,-17.1%,-13.4%
CCOC(=O)N1CCC(N2C(=O)c3ccc(C(=O)NCc4ccco4)cc3C2=O)CC1,-23.3%,4.0%
COc1ccc(/C=C/C(=O)O)cc1COc1cccc(C)c1,i,-12.5%
Cc1ccccc1COCCN1CCN(S(=O)(=O)c2ccccc2)CCC1=O,-14.0%,-9.4%
Nc1cc(C(=O)c2ccccc2)ccc1[N+](=O)[O-],i,-3.8%
COc1ccc(CN2CC(C(=O)NCCCOC(C)C)CC2=O)cc1 (stereo not given),-20.4%[1.46 µM],-14.7%
Cn1c(=O)cc(C(=O)N/N=C/c2ccc(Cl)cc2)[nH]c1=O,i,0.0%
COc1ccc(NC(=O)/C(=C\c2ccncc2)NC(=O)c2ccccc2)cc1,-7.1%,-1.3%
CCOC(=O)c1cc(C#N)c(Nc2ccccc2OC)nc1C(F)(F)F,-8.0%,-15.4%
COc1cc(OC)cc(C(=O)NC2CC3CCC(C2)N3Cc2ccco2)c1 (stereo not given),-4.7%,-15.6%
Cc1ccc(-c2csc(SCC(=O)c3c(N)n(C4CC4)c(=O)[nH]c3=O)n2)cc1,i,-10.6%
O=S(Cc1ccccc1)c1ccccc1 (stereo not given),i,-6.9%
O=C(c1ccc(F)cc1)C1CCN(C(=O)Nc2ccc(F)cc2F)CC1,-5.1%,1.9%
CN(C)C(CNC(=O)C1CC(=O)N(Cc2ccccc2)C1)c1ccccc1 (stereo not given),i,-8.8%
COc1ccc(NC(=O)CN(c2cccc(C)c2C)S(=O)(=O)c2ccccc2)cc1OC,-9.2%,-9.4%
CCCC[C@@]1(C2CCCC2)Cc2cc(OCC(=O)O)c(Cl)c(Cl)c2C1=O,i,-2.5%
O=C(O)CCc1ccc(-c2ccccc2)n1NC(=O)c1cccs1,-17.1%,-16.2%
COCCCNC(=O)CC(NS(=O)(=O)c1ccc(OC)cc1)c1ccc(OC)cc1 (stereo not given),11.0%,0.0%
Cc1ccc(S(=O)(=O)c2c(O)cc(C)c(NS(=O)(=O)c3ccc(Br)cc3)c2C)cc1,-6.2%,-12.7%
CCCN(CCC)CCNc1c(N2CCN(C(=O)OCC)CC2)c(=O)c1=O,-13.8%,-12.3%
COc1ccc(OC)c(NC(=O)CN2c3cccc4cccc(c34)S2(=O)=O)c1,-27.7%,-17.8%
CCn1c(SCc2nc3ccccc3s2)nc2cc(S(=O)(=O)N3CCOCC3)ccc21,-11.6%,-3.7%
CCCCn1nnnc1C(c1cccs1)N1CCC2(CC1)C(=O)NCN2c1ccccc1 (stereo not given),i,-16.1%
COc1cc(/C=C(\C#N)c2nc3ccccc3n2C)cc(OC)c1OC,-2.1%,5.4%
Cc1nn(-c2ccc(Cl)cc2)c2[nH]c(CCl)cc(=O)c12,i,-7.9%
COc1ccc(-c2ccc(CN3C(C(C)C)C(=O)N(Cc4cn(Cc5ccco5)nn4)CCS3(=O)=O)cc2)cc1OC (stereo not given),-8.9%,-26.2%
COc1ccc(-c2cc(C(=O)Nc3cccnc3Cl)no2)cc1,-10.8%,-8.8%
CCOc1ccc(C2/C(=C(\O)c3ccc4c(c3)OCCO4)C(=O)C(=O)N2CCCN2CCOCC2)cc1OC (stereo not given),i,-2.6%
CCS(=O)(=O)Nc1ccc(C2=NN(C(=O)c3ccco3)C(c3cccs3)C2)cc1 (stereo not given),u,-23.4%
CCc1cccc(NC(=O)CCS(=O)(=O)c2cc(Br)cc3c2N(C(C)=O)CC3)c1,-7.5%,-7.6%
C#CCOCC1CN(c2ccccc2)C(=O)O1 (stereo not given),-20.3%,-1.7%
Cn1c(N)c(S(=O)(=O)N2CCN(c3cccc(Cl)c3)CC2)c(=O)n(C)c1=O,-9.5%,-23.8%
COc1ccc(/C=C/C(=O)OCC(=O)NCc2cccs2)cc1OC,-1.4%,-16.8%
N/C(=N\OC(=O)CCCc1ccccc1)c1ccccn1,i,-3.7%
CC[C@H]1c2[nH]c3ccccc3c2C[C@H]2C(=O)N(c3ccc(F)cc3)C(=O)N21,-25.5%,-14.4%
NC(=O)CN1C2CCC1CC(NC(=O)C1CC1)C2 (stereo not given),-7.5%,-3.1%
O=C(CC12CC3CC(CC(C3)C1)C2)N1CCOCC1,x,-14.6%
O=C(O)Cn1nc(C(F)(F)F)c2c1CCCC2,-14.4%,-0.3%
COc1cccc(CN2CCNC(=O)C2CC(=O)NCCn2nc(C)cc2C)c1OC (stereo not given),i,-4.4%
CCN(CC)CCCN1C=C2C(=O)C(C)(OC(=O)C3CCCC3)C(=O)C(c3ccccc3)=C2C=C1CCCC(=O)OC (stereo not given),i,0.9%

# Screening results (PubChem BioAssay)
